# Screening data deposited in PubChem BioAssay by several laboratories.
# Hsc70 ATP site: small molecules displacing fluorescent ligand from Hsc70 – biochemical, fluorescence polarization, primary screen (AID 568); Hsc70 fluorescence polarization, probe displacement; higher % means a stronger effect; strong numbers were not always called active; displacement, % at 20 µM, or IC50 in µM where a hit was titrated; 83,000 tested, under 10 active;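 active = displacement above 50% without optical interference and an IC50 on retest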;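 also: ATPase domain with a fluorescein-tagged ATP probe; 0% = vehicle and 100% = excess ADP; read after one hour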
# WNV NS2B-NS3 inh: blocks West Nile virus NS2B-NS3 protease activity; P06935; WNV NS2B-NS3 protease, fluorogenic substrate Ex360/Em465; hits give low values; z-score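 (tested at a level between 10 and 100 µM)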; hit rate 0.18% among 65,000;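 active = z-score at -3 or under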;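 also: score is relative to mean and spread of the compound wells of a plate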
# Target sequence (P06935 1371-1501 limits assumed): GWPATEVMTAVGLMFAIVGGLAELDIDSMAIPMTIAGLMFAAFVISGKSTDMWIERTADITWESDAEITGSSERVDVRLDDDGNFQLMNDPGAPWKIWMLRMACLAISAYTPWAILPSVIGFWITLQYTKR
# Target sequence (P06935 1502-1679 limits assumed): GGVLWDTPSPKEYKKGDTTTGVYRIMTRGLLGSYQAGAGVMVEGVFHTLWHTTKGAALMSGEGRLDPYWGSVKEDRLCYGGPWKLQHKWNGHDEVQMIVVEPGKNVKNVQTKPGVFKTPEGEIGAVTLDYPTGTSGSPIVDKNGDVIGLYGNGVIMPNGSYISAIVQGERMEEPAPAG
# MT1-MMP promoter: MT1-MMP gene expression reporter suppression – cell-based, luciferase reporter, luminescence (AID 618); MT1-MMP promoter luciferase reporter cells, luminescence; calls from a first round at 10 µM; hits with a dose series show EC50 in µM; hit rate 0.62% among 87,000;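 active = over half of the reporter light lost at 10 µM or EC50 under 50 µM; inactive = the rest and hits that failed the dose series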;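 also: actives suppress MT1-MMP promoter-driven transcription so potencies describe inhibitors; HT1080 fibrosarcoma cells; overnight exposure; toxic or luciferase-blocking compounds were not removed from the actives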
# * marks the source's active call; other numbers are inactive results; i = inactive; x = no result given; + = active, no number.
SMILES,Hsc70 ATP site,WNV NS2B-NS3 inh,MT1-MMP promoter
Cc1ccc(S(=O)(=O)NCCC(=O)Nc2nnc(C3CC3)s2)cc1C,-1.4%,-0.65,i
COc1ccccc1CN1C(=O)C2CC=CCC2C1=O (stereo unspecified),-2.3%,0.57,i
C=C(C)CN1CCN(c2c(CCC#N)c(C)c(C#N)c3nc4ccccc4n23)CC1,-113.6%,0.11,i
CN(C)c1ccc(N2C(=O)CC(Nc3ccc(N4CCOCC4)cc3)C2=O)cc1 (stereo unspecified),-0.5%,x,i
CC[N+](C)(C)CCN(Cc1ccc(Cl)cc1)c1ccccn1,-4.4%,x,i
Cc1ccc(S(=O)(=O)NC(=O)COc2ccccc2C)cc1,0.2%,x,i
COCCN(C(=O)CN1CCc2ccccc2C1)c1c(N)n(Cc2ccccc2)c(=O)[nH]c1=O,3.8%,0.09,i
CC(NC(=O)C1CCC1)c1ccccc1 (stereo unspecified),4.9%,0.54,i
O=C(NCc1ccco1)C(c1ccco1)N(C(=O)Cn1nnc2ccccc21)c1ccc2c(c1)CCC2 (stereo unspecified),-4.9%,-1.51,i
CCc1ccc(S(=O)(=O)NCc2cn3c(C)csc3n2)s1,3.5%,-0.75,i
O=C(c1ccc(F)cc1)N1CCN(C2CC3CCC2C3)CC1 (stereo unspecified),-2.1%,0.5,i
COC(=O)C(O)(CC(=O)Nc1ccc(OC(F)(F)F)cc1)C(F)(F)F (stereo unspecified),4.6%,0.09,i
CCCCCc1ccc(-c2ccc(C(=O)O)cc2)nc1,0.2%,x,3.53µM*
CCSc1nnc(NC(=O)CSc2ncccn2)s1,1.1%,0.31,i
CC1CCCC(NC(=O)CSc2nnnn2C)C1C (stereo unspecified),1.6%,-1.25,i
Brc1ccc(-c2cn3c(n2)CCc2ccc4cccnc4c2-3)cc1,0.6%,x,i
CC(C(=O)N1CCOCC1)N1c2cccc3cccc(c23)S1(=O)=O (stereo unspecified),3.6%,-0.43,i
Cc1nonc1OCC(C)(COc1nonc1C)NC(=O)c1ccccc1,-0.2%,x,i
Cc1cccc(C)c1NC(=O)C1(N(Cc2ccco2)C(=O)CC2NC(=O)NC2=O)CCCC1 (stereo unspecified),1.9%,x,i
Cc1ccc(-c2noc(CCC(=O)NCCCN3CCN(c4ccc(F)cc4)CC3)n2)cc1,8.5%,-0.87,i
CN(C)c1ccc(C(=O)c2ccc(N(C)C)c3ccccc23)cc1,-0.6%,x,i
O=C(CCSc1nc(-c2ccco2)cc(C(F)(F)F)n1)Nc1ccc2c(c1)OCO2,-3.3%,-0.42,i
OC(C#CCN1CCCCC1)c1ccccc1 (stereo unspecified),-2.2%,0.05,i
CCn1c2c(c3cc(Cl)ccc31)CCCC2=O,-2.3%,1.33,i
Cc1cccc(C)c1OCC(=O)Nc1cccc(-c2nnc(-c3ccccc3)o2)c1,-9.8%,1.67,i
c1ccc(-c2ccc(OCCCn3cncn3)cc2)cc1,-5.6%,0.45,i
Cc1cc(N2CCN(c3ccccc3)CC2)nc(NCc2ccccc2)n1,1.2%,-0.35,i
CCOC(=O)c1sc2ncn(/N=C/c3cccnc3)c(=O)c2c1C,-2.6%,x,i
COc1cccc(C2=NO[C@@H]3C(=O)N(Cc4ccccc4)C(=O)[C@H]23)c1OC,0.9%,0.04,i
O=C(c1oc2ccccc2c1CSCc1ccccc1)N1CCN(c2ncccn2)CC1,6.8%,0.87,i
O=C(Cn1c(SCC(=O)N2CCc3ccccc3C2)nc2ccccc21)NC1CCCC1,8.8%,x,i
Cc1ccc(CNc2oc(C)nc2C#N)cc1,1.5%,x,i
C=CCNC(=S)NNC(=O)C(CCC(C)C)CC(C)(C)O (stereo unspecified),-1.6%,x,i
Cc1cc(-n2c(C)cc(C(=O)CN3C(=O)NC4(CCCCC4)C3=O)c2C)no1,-4.7%,0.7,i
Brc1ccc(-c2csc(/N=C/N3CCOCC3)n2)cc1,-8.9%,-0.1,i
CCOC(=O)c1ccc(-n2c(N)c(C(=O)NCC3CCCO3)sc2=S)cc1 (stereo unspecified),-1.8%,x,i
O=C(Nc1ccccc1)NC1CS(=O)(=O)CC1O (stereo unspecified),1.6%,0.78,i
COc1ccc(C)cc1NC(=O)CN1C(=O)c2ccccc2S1(=O)=O,6.0%,0.33,i
COC(=O)[C@H]1C2CCC(C(=O)OC)(CC2)[C@H]1C(=O)OC,0.8%,-1,i
Cc1ccc(C(=O)Nc2nc(C(C)(C)C)cs2)s1,2.5%,x,i
O=C(Nc1ccc(Cl)cc1)N(Cc1cccnc1)Cc1ccco1,-1.5%,-1.17,i
CC1(C)CNC(=O)c2sc(NC(=O)CN3CCOCC3)nc2C1,0.8%,-1.09,i
CC(C)NC(=O)CSc1nnc(COc2ccccc2Cl)o1,1.9%,x,i
O=C(Cn1ncc2ccccc21)N1CCN(c2cccc(C(F)(F)F)c2)CC1,-3.2%,-0.13,i
Cc1ccccc1NC(=O)CSc1nc2ccccc2o1,3.1%,x,i
CC(=NCC1CCNCC1)C1=C(O)CC(C)(C)CC1=O,7.2%,1.73,i
O=C(Cn1nc(Cc2ccncc2)c2ccccc2c1=O)N1CCc2ccccc2C1,6.9%,1.06,i
Cc1cc(NS(=O)(=O)c2ccc(NC(=O)CCCOc3ccc(Cl)cc3)cc2)no1,4.7%,0.64,i
Cn1c(-c2ccc(F)cc2)cnc1NCc1ccc(F)cc1,0.8%,x,i
COc1ccccc1Cc1noc(C(C)(C)NC(=O)c2ccccc2)n1,-5.8%,-1.07,i

# Compounds shown so far containing fluorine, in the order listed:
SMILES,Hsc70 ATP site,WNV NS2B-NS3 inh,MT1-MMP promoter
O=C(c1ccc(F)cc1)N1CCN(C2CC3CCC2C3)CC1 (stereo unspecified),-2.1%,0.5,i
COC(=O)C(O)(CC(=O)Nc1ccc(OC(F)(F)F)cc1)C(F)(F)F (stereo unspecified),4.6%,0.09,i
Cc1ccc(-c2noc(CCC(=O)NCCCN3CCN(c4ccc(F)cc4)CC3)n2)cc1,8.5%,-0.87,i
O=C(CCSc1nc(-c2ccco2)cc(C(F)(F)F)n1)Nc1ccc2c(c1)OCO2,-3.3%,-0.42,i
O=C(Cn1ncc2ccccc21)N1CCN(c2cccc(C(F)(F)F)c2)CC1,-3.2%,-0.13,i
Cn1c(-c2ccc(F)cc2)cnc1NCc1ccc(F)cc1,0.8%,x,i

# (listing goes on)
SMILES,Hsc70 ATP site,WNV NS2B-NS3 inh,MT1-MMP promoter
O=C(c1ccc(Cl)c(S(=O)(=O)N2CCOCC2)c1)N1CCN(Cc2ccccc2)CC1,1.3%,x,i
CC(C)CCNC(=O)NC(=O)COc1c(F)c(F)cc(F)c1F,-4.4%,x,i
O=C1OC(c2ccc(O)cc2)(c2ccc(O)cc2)c2ccccc21,2.0%,0.16,i
COc1ccc(C2C(C(C)=O)=C(O)C(=O)N2CCc2ccccc2)c(OC)c1 (stereo unspecified),-2.9%,-0.74,i
Cc1cc(C)c(NC(=O)CN(c2ccccc2)S(=O)(=O)N(C)C)c(C)c1,0.7%,x,i
CC1(C(=O)CSc2nc3ccccc3s2)CCC(=O)O1 (stereo unspecified),3.2%,-0.55,i
O=C(OCn1ncc(Br)c(Br)c1=O)c1c(F)cccc1F,-0.1%,x,+
CCOC(=O)C(NCc1ccccc1OC)(NC(=O)c1ccccc1)C(F)(F)F (stereo unspecified),3.4%,x,i
Cc1ccc2c(c1)[C@H]1OCC[C@H]1[C@@H](c1ccncc1)N2,3.2%,0.08,i
CC(=O)c1c(N)nc2n(c1=O)CCCCC2,-6.7%,1.52,i
CSc1nc2c(c(=O)n1Cc1ccccc1)SC(C)C2 (stereo unspecified),2.8%,0.08,i
CC(=O)c1ccc(OCCCC(=O)OCC(=O)N2CCN(c3ccccc3)CC2)cc1,-5.2%,-0.39,i
O=c1cc(N2CCc3ccccc3C2)[nH]c(=O)n1Cc1ccc(F)cc1,-2.2%,-1.16,i
O=C1C2C(C(=O)N1CCc1ccccc1)C1C=CC2C12CC2 (stereo unspecified),3.6%,x,i
C=CCn1c(C)cc(C(=O)CSc2nnc(-c3cccc(S(=O)(=O)N(CC)CC)c3)o2)c1C,-9.4%,1.08,i
CCOC(=O)c1c(C)n(C)c2ccc(OC)c(NC(=O)CN3CCN(C4CCCCC4)CC3)c12,-4.3%,x,i
COc1ccc(-c2[nH]c(-c3cccc(OC)c3)nc2SCC(=O)NCc2ccco2)cc1,0.7%,0.21,i
CCOC(=O)Cc1csc(NC(=O)c2cnc3scc(C)n3c2=O)n1,-4.6%,-0.2,i
COc1ccc2cc(C(c3nnnn3C(C)(C)C)N3CCc4ccccc4C3)c(=O)[nH]c2c1 (stereo unspecified),1.4%,-0.46,i
CCCCn1c(SCC(=O)N2c3ccccc3Sc3ccccc32)nc2c1c(=O)n(C)c(=O)n2C,1.7%,x,i
CC(C)=C(NC(=O)c1ccccc1)C(=O)NCCCC(=O)O,0.5%,-1.15,i
CCN1CCN(c2ncc(C(=O)Nc3cc(Cl)ccc3OC)c3ccccc23)CC1,-6.4%,0.79,i
COc1ccc(COCC(O)CN2CC(C)OC(C)C2)cc1OC (stereo unspecified),-0.3%,x,i
C=CCn1c(SCc2nc3ccccc3[nH]2)nnc1-c1ccncc1,-0.9%,0.87,i
CCCCOC(=O)C1CCC[C@@H](C)N1 (stereo partly specified),-3.1%,x,i
CC(=O)Oc1ccccc1C(=O)Oc1ccc(/C=N/n2cnnc2)cc1,3.9%,-0.54,i
Cc1ccc(S(=O)(=O)N(C)Cc2nc(-c3ccccn3)no2)cc1,-7.1%,0.8,i
CCC(=O)N(C)/C=C1\Sc2ccccc2C1=O,-3.1%,x,i
Cc1occc1C(=O)Nc1cccnc1,3.0%,-0.07,i
CC1CCN(C(=O)CCc2ccc(S(=O)(=O)NC(C)(C)C)cc2)CC1,8.5%,x,i

# Sorted by count of non-hydrogen atoms (descending): part of the list above.
SMILES,Hsc70 ATP site,WNV NS2B-NS3 inh,MT1-MMP promoter
CCOC(=O)c1c(C)n(C)c2ccc(OC)c(NC(=O)CN3CCN(C4CCCCC4)CC3)c12,-4.3%,x,i
Cc1cc(N2CCN(c3ccccc3)CC2)nc(NCc2ccccc2)n1,1.2%,-0.35,i
O=C1OC(c2ccc(O)cc2)(c2ccc(O)cc2)c2ccccc21,2.0%,0.16,i
Brc1ccc(-c2csc(/N=C/N3CCOCC3)n2)cc1,-8.9%,-0.1,i

# (list continues)
SMILES,Hsc70 ATP site,WNV NS2B-NS3 inh,MT1-MMP promoter
COc1cc(-c2nc3cnccc3n2C)cc(OC)c1OC,-5.2%,0.02,i
Cc1cccc2cc(C(c3nnnn3Cc3ccccc3)N3CCN(c4ccccc4)CC3)c(=O)[nH]c12 (stereo unspecified),5.1%,0.93,i
COc1cccc(C(c2nnnn2Cc2ccc(F)cc2)N2CCC(C(N)=O)CC2)c1OC (stereo unspecified),-0.2%,0.51,i
CCn1c2ccccc2c2cc(C3N=C(N)Nc4nc5ccccc5n43)ccc21 (stereo unspecified),5.0%,0.52,i
Cc1ccc(-n2nc3c(n2)/C(=N/O)CC/C3=N\O)cc1,2.6%,x,i
COC(=O)c1ccc(Cn2cnc3c(sc4nc(N5CCOCC5)c5c(c43)CCCC5)c2=O)o1,-15.1%,-0.6,i
COCC(=O)Nc1nc2n(n1)C(c1ccccc1)CC(c1ccc(OC)cc1)N2 (stereo unspecified),4.2%,0.06,i
CCc1ccc(NC(=O)CS(=O)CC(=O)NCC2OCCc3ccccc32)cc1 (stereo unspecified),3.9%,-0.02,i
Cn1nc(-c2ccc(C(=O)N3CCN(CCO)CC3)cc2)c2ccccc2c1=O,2.6%,x,i
CCOCc1nc(N)[nH]c(=O)c1Cc1ccc(OC(C)C)cc1,1.3%,-0.88,i
Cc1cc(C(=O)CSc2nnnn2-c2ccc(Cl)cc2)c(C)n1CC1CCCO1 (stereo unspecified),-0.9%,0.04,i
Cc1cc(NC(=O)c2cncc(Br)c2)no1,0.8%,x,i
C=CCSc1nc2ccccc2n1S(=O)(=O)c1ccc(Cl)cc1,-2.6%,x,i
CC(C)OC(=O)CC1=NC(=O)CS1,-7.2%,-0.43,i
O=C(O)C1CC=CCC1C(=O)NCCc1cccc(Cl)c1 (stereo unspecified),-2.8%,x,i
CCCC(=O)NCCCCNC(=O)CCC,3.8%,-0.97,i
Cc1ccc(C(=O)NCCn2cc(SCC(=O)Nc3nnc(C)s3)c3ccccc32)cc1,9.5%,1.62,i
CC(C)OC(=O)C(CC(=O)O)N1CCOCC1 (stereo unspecified),-0.3%,x,i
COc1cc(OC)cc(-c2nnc(SCC(=O)N3c4ccccc4Sc4ccccc43)o2)c1,-7.8%,-0.74,i
CCOc1ccc(C(=O)NC2CCN(C(=O)N3CCCC3)CC2)cc1,-5.4%,x,i
COc1ccc2nc3oc(C(=O)NCc4cccs4)cc3cc2c1,-8.3%,0.84,i
Cn1c(=O)c(=O)n(C)c2cc(S(=O)(=O)N3CCC(Cc4ccccc4)CC3)ccc21,0.5%,-0.23,i
COC(=O)C1=C(C)NC(=O)NC1C1CC=CCC1 (stereo unspecified),-1.7%,-1.02,i
CCOc1ccc(-n2cc(C(=O)NCc3ccco3)c3cc(OC)c(OC)cc3c2=O)cc1,-3.4%,-0.52,i
Fc1ccc(CNc2ncnc3c2cnn3-c2ccccc2)cc1,-5.7%,-1.04,i
CCCCCC(=O)Nc1ccc2oc(-c3cccnc3)nc2c1,-3.5%,0.47,i
Cc1ccc(Cn2ccc(=O)c(OCc3c(Cl)cccc3Cl)c2C)cc1,0.8%,x,i
CCC1CCCCN1CCCNC(=O)c1ccc(CS(=O)(=O)Cc2ccccc2F)o1 (stereo unspecified),-6.6%,-0.15,i

# An excerpt, so the mix of outcomes need not match the whole.
